Env fusion inh: HIV envelope-mediated fusion inhibition | HeLa-JRFL Env/CEM21 cell fusion, luciferase | inhibition, % at 12.3 µM | hit rate 1.1% among 360,000;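 active = mean replicate inhibition score of at least 50 and every replicate individually at or above 50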;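 also: 0% = plate neutral controls and 100% = maraviroc near 300 nM; one replicate is shown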
UUG fidelity: alters start codon recognition fidelity in yeast; S. cerevisiae UUG-firefly luciferase reporter, luminescence/redox ratio; activity score, % at 18.7 µM; hit rate 0.13% among 350,000; AID 602363;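 active = replicate mean at a twofold rise or more, about +100% in these data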;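 also: firefly luciferase made from a UUG start codon reports start codon fidelity; reporter light over untreated wells divided by growth signal over untreated wells; some hits fall short of that in this replicate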
Rce1 inhib: inhibitors of yeast Ras-converting enzyme; hit rate 0.27% among 290,000; calls only; yeast membranes, quenched prenylated peptide cleavage fluorescence; Q03530;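 active = fall in fluorescence gain of 50% or more versus controls, with final raw signal at or below 3038400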;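 also: plate controls were neutral control wells for no effect and wells lacking membranes for full effect; tested at 10 µM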
Target sequence (Q03530 whole entry, looked up): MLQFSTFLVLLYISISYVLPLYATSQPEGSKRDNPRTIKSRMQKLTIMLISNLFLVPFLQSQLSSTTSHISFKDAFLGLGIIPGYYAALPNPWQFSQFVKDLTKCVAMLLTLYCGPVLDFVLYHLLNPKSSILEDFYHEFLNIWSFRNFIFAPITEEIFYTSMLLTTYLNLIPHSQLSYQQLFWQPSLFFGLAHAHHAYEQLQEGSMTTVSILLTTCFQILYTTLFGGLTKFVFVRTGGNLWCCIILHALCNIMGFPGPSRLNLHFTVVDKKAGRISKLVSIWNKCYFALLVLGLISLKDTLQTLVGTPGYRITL
MT1-MMP act inh: blocks activation of human MT1-MMP. GFP/RFP ratio change, % at 20 µM. AID 651647. HT1080 RFP-PRO-GFP cells, GFP/RFP ratio fluorescence, overnight; percent of plate control window, DMSO zero. hit rate 0.061% among 360,000;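 active = GFP/RFP ratio change of at least 30% with cell ATP level not reduced by more than half and red fluorescence within 50% of control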; also: strong numbers were not always called active
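Read-out: GFP/RFP fluorescence ratio; Test system: RFP-PRO-GFP reporter HT1080 cells; Compound dosing: single-point 20 µM compound, 1% DMSO; Times: overnight compound exposure at 37 °C.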
PABP FP inh: PABP-poly(A) binding inhibition | PABP-poly(A) RNA binding, fluorescence polarization | inhibition, % at 35 µM | hit rate 1% among 290,000;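 active = 50% or more with normal probe brightness, or confirmed in later tests; about a fifth of its hits are not listed in these tables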;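 also: calls also rest on retests at 20 µM and on dose response follow-up; controls were probe without protein and protein plus probe with vehicle; some compounds called inactive have numbers as strong as hits; many hits fall short of the cut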
Target sequence (P11940 whole entry, looked up): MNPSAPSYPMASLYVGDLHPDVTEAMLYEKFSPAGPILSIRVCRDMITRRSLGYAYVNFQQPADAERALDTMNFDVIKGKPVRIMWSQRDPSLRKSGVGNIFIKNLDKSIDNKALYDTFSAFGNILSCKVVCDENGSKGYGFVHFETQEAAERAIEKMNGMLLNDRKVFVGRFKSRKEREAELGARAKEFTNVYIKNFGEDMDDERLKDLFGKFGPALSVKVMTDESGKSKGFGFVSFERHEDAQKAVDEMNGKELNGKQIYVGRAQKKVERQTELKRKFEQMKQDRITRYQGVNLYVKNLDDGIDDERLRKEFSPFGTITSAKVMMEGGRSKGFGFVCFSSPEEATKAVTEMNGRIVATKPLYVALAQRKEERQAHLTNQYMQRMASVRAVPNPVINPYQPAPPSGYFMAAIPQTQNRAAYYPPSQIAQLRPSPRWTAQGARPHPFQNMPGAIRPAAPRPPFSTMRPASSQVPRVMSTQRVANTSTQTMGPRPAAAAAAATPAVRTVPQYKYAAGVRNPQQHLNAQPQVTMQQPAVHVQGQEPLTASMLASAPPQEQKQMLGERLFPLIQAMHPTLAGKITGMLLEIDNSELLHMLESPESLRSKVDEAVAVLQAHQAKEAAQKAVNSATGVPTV
eIF4H inh: inhibitors of RNA binding by human eIF4H; hit rate 0.94% among 290,000; inhibition, % at 35 µM; eIF4H fluorescence polarization binding assay; AID 2012; Q15056;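 active = 50% or more with normal probe brightness, or confirmed in later tests; about a fifth of its hits are not listed in these tables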;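 also: calls also rest on retests at 20 µM and on dose response follow-up; 0% = protein and probe with vehicle and 100% = probe without protein; strong numbers were not always called active; many hits fall short of the cut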
CSC inhib: cancer stem cell inhibition; inhibition, % at 7.5 µM; cancer stem cell-like cells viability, luminescence; hit rate 1.1% among 300,000;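 active = mean at 75% or more and at least half the replicates too; tested in HMLE shEcad cells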;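 also: 0% = median of negative and 100% = median of positive control wells; the first replicate is given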
eIF4H inh retest: also measured in eIF4H inh; calls as there; inhibition, %; compound at 20 µM; confirmation average;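 mean of two retest wells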
PABP FP inh retest: second read-out of PABP FP inh, no call of its own (marks repeat the call); inhibition, %; compound at 20 µM; confirmation repeats;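 mean of two retest wells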
MT1-MMP act inh RFP: also measured in MT1-MMP act inh; calls as there; RFP signal change, %; measured here: RFP expression control read;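 0 = vehicle wells; hits needed this value within 50% of zero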
Starred values were filed as active, the others as inactive; i = inactive; nt = not tested or not shown; & = joins results of further samples; [ ] = remark or other dose. Some of the compounds tested; the hit share may differ from the screen's.

Preview, three compounds:
SMILES | Env fusion inh | UUG fidelity | Rce1 inhib | MT1-MMP act inh | MT1-MMP act inh RFP | PABP FP inh | eIF4H inh | CSC inhib | others
C[C@@]12CCC3[C@@](CCC4[C@@]3(C)CCC[C@@]4(C)C(=O)O)(CC1=O)C2 (some centres undefined) | 7 | -7 | nt | nt | nt | nt | nt | 11
CCC(C)Oc1cccc(C(=O)Nc2ccccc2N2CCOCC2)c1 (centres undefined) | -56 | 0 | i | -3 | -7 | 15 | -3 | 24
O=C(NC(N1CCOCC1)C(Cl)(Cl)Cl)c1cc([N+](=O)[O-])cc([N+](=O)[O-])c1 (centres undefined) | 13 | nt | nt | 7 | 3 | -8 | 0 | -13

The listing, from the start:
SMILES | Env fusion inh | UUG fidelity | Rce1 inhib | MT1-MMP act inh | MT1-MMP act inh RFP | PABP FP inh | eIF4H inh | CSC inhib | others
C[C@@]12CCC3[C@@](CCC4[C@@]3(C)CCC[C@@]4(C)C(=O)O)(CC1=O)C2 (some centres undefined) | 7 | -7 | nt | nt | nt | nt | nt | 11
CCC(C)Oc1cccc(C(=O)Nc2ccccc2N2CCOCC2)c1 (centres undefined) | -56 | 0 | i | -3 | -7 | 15 | -3 | 24
O=C(NC(N1CCOCC1)C(Cl)(Cl)Cl)c1cc([N+](=O)[O-])cc([N+](=O)[O-])c1 (centres undefined) | 13 | nt | nt | 7 | 3 | -8 | 0 | -13
CCOC(=O)N1CCC(N(CCN(C)C)C(=S)Nc2cc(C)ccc2C)CC1 | -37 | -2 | i | -1 | 2 | -9 | -6 | -6
CN(C)S(=O)(=O)c1ccc(Cl)c(C(=O)NCC2CCCCC2)c1 | 3 | 12 | i | 1 | 1 | 2 | -1 | 4
O=C(NCC1CCCO1)C1CCN(S(=O)(=O)c2ccccc2)CC1 (centres undefined) | -1 | 3 | i | -2 | -1 | -9 | -14 | -3
CCCc1c(O)nc(SCC(=O)O)[nH]c1=O | -6 | nt | i | -4 | -3 | 4 | -12 | 9
COc1ccc(/C=C2\CCc3ccccc3C2=O)cc1CN1CCOCC1 | 29 | -21 | i | 5 | -6 | -1 | 8 | -3
COc1ccccc1CNS(=O)(=O)c1ccc(Cl)s1 | -5 | -14 | i | 1 | 2 | 7 | -9 | -4
CCCN(C(=O)c1ccco1)c1nnc(-c2ccccc2C)s1 | -17 | nt | i | 6 | -1 | 5 | 6 | -10
Cc1nc2ccccc2n1CC(=O)NN | 9 | nt | i | 1 | 3 | -5 | 1 | -6
O=C(O)C1CC=CCC1C(=O)N1CCN(c2nc(-c3ccccc3Cl)c3cc(Br)ccc3n2)CC1 (centres undefined) | -64 | -18 | nt | 6 | -15 | -5 | 3 | -1
O=C(CSc1nnc(-c2cccnc2)n1Cc1ccco1)N1CCc2ccccc21 | -114 | -11 | nt | 6 | 0 | -4 | 0 | -4
Cn1c2ccccc2n2c(=O)c(=O)n(CC(=O)N3CCCc4ccccc43)nc12 | nt | nt | i | nt | nt | -4 | -5 | nt
O=C(COC(=O)c1c[nH]c(=O)[nH]c1=O)NCc1ccccc1 | nt | -7 | i | 10 | 3 | 0 | -1 | -5
CCOc1ccc(CCNC(=O)c2cccnc2N2CCCC2)cc1OCC | nt | -3 | i | -9 | -9 | 9 | -7 | -12
Cc1cc(S(=O)(=O)NC(C)C)ccc1OCC(=O)Nc1ccc2c(c1)OCCO2 | -3 | nt | i | 3 | -3 | 2 | -5 | 2
Cc1ncc([N+](=O)[O-])n1S(=O)(=O)c1cc(Cl)ccc1Cl | 19 | -5 | i | 1 | 3 | -12 | -5 | -1
Cc1cc(C)c2[nH]c(=O)c(CN(Cc3cccs3)C(=S)NCC3CCCO3)cc2c1 (centres undefined) | 40 | -29 | i | -5 | -7 | -10 | -7 | 20
O=C(Nc1ccc(Br)cc1)c1cc(-c2cccs2)on1 | -13 | -20 | i | 3 | 3 | -3 | 9 | 12
Cc1ccc(NC(=O)C(c2ccccc2)N2CCN(CC(=O)N3CCOCC3)CC2)cc1 (centres undefined) | -17 | -19 | nt | 1 | 3 | nt | nt | -11
O=S(=O)(Nc1ccc(N2CCCCC2)cc1)c1ccccc1 | nt | 10 | i | -2 | -5 | 8 | 3 | -3
COc1cccc(NC(=O)c2cccc(C(=O)Nc3cccc(OC)c3)c2)c1 | -11 | -18 | i | -1 | 0 | 3 | -17 | -3
COc1ccc(S(=O)(=O)Nc2ccc3c(c2)C(=O)N([C@H](C)CO)C[C@H](C)[C@@H](CN(C)C(=O)Nc2ccc4c(c2)OCO4)O3)cc1 | 8[16.7 µM] | 1&6 | nt | 1 | 3 | nt | nt | nt
Cc1[nH]c2ccccc2c1C(=O)CSc1ccccn1 | -36 | -22 | i | 2 | -1 | 1 | -9 | -3
SMILES | Env fusion inh | UUG fidelity | Rce1 inhib | MT1-MMP act inh | MT1-MMP act inh RFP | PABP FP inh | eIF4H inh | CSC inhib | others
O=C(COC(=O)Cc1ccccc1F)Nc1cccc(S(=O)(=O)NC2=NCCCCC2)c1 | 0 | nt | i | -4 | -3 | 4 | -1 | -10
CCC1CCCCN1C(=O)CSc1nnc(-c2cccs2)o1 (centres undefined) | nt | -40 | i | 5 | 2 | -8 | -6 | -10
O=C(CCC(=O)N1CCCCCC1)NCc1ccc(F)cc1 | 0 | -21 | i | -2 | 4 | 1 | 6 | -7
Cc1cccc(OCCCC(=O)NCc2ccco2)c1 | nt | nt | i | 5 | 0 | 25 | 35 | 9
COc1nc(Nc2ccc(O)cc2)nc(OC(C(F)(F)F)C(F)(F)F)n1 | -18 | -3 | i | 5 | -8 | -6 | -9 | 8
O=C(NCCc1ccc(Cl)cc1)C1CCN(S(=O)(=O)c2cccs2)CC1 | -4 | 13 | i | 4 | -4 | -6 | -2 | nt
CCN(CC)C(=O)C1CCCN(c2ncnc3c2cnn3-c2ccc(Cl)cc2)C1 (centres undefined) | 33 | -14 | i | 1 | -17 | -4 | -13 | 8
c1cncc(-c2nn3c(Cn4cnc5ccccc54)nnc3s2)c1 | nt | -11 | i | -8 | 3 | 4 | -3 | -9
O=C(Nc1ccc2c(c1)nc1n2CCSC1)c1ccco1 | -49 | -67 | i | -1 | 0 | 2 | 72* | -7 | eIF4H inh retest=55*;PABP FP inh retest=3
Cc1sc2ncnc(SCC(=O)NCC3CCCO3)c2c1C (centres undefined) | 5 | -5 | nt | -1 | 2 | nt | nt | nt
COc1cccc(NC(=O)CSc2nnnn2C2CCCC2)c1 | 4 | -14 | i | 2 | 3 | 7 | -2 | 4
COC(c1ccccc1)c1nnc(CCC(=O)NCc2cccc(-n3cccn3)c2)o1 (centres undefined) | -7 | nt | i | 1 | 5 | 3 | -5 | 1
COc1ccc2nc(C)cc(SCC(=O)OC(C)C)c2c1 | 12 | nt | i | 6 | -1 | 1 | -15 | -16
Cc1cc(N2CCC(N(C)C3CCCC3)CC2)nc2cc(O)ccc12 | -9 | -32 | i | 3 | 6 | 1 | 7 | 14
C=C1N(c2cccc(Cl)c2)C(=O)OC1(C)C | 0 | -22 | i | -1 | 4 | -10 | -1 | -3
NNC(=O)CNS(=O)(=O)c1ccc([N+](=O)[O-])cc1 | 1 | nt | i | -1 | 2 | -2 | 2 | nt
CC(C)NS(=O)(=O)c1ccc2c3c(cccc13)CC2 | 14 | nt | i | 3 | -2 | -8 | -4 | 3
Cc1ccc(S(=O)(=O)N2CCN(c3ccc(N4CCOCC4)nn3)CC2)cc1[N+](=O)[O-] | -3 | -3 | i | -3 | -1 | nt | nt | -8
O=C(CSc1nnc(-c2ccccc2)n1-c1ccccc1)N1c2ccccc2Sc2ccccc21 | -16 | nt | i | -3 | 4 | 17 | -1 | 47
CC12CCC(=O)N1C(C(=O)NCc1ccccc1Cl)CS2 (centres undefined) | 1 | 3 | i | -1 | 5 | nt | nt | nt
COC(=O)C1=C(C)NC(C)=C(C(=O)OC)C1C(=O)OCC(=O)N1CCCCC1C (centres undefined) | 11 | 6 | nt | 5 | -2 | nt | nt | nt
CCN(CC)NC(=O)Nc1ccccc1 | 9 | 2 | i | 0 | 2 | 5 | -6 | -4
O=[N+]([O-])c1cccc(CN2CCN(Cc3ccco3)CC2)c1 | 0 | 4 | i | 1 | 4 | 10 | -2 | 4
C=C(C)Cn1c(CCn2c3ccccc3c3ccccc32)n[nH]c1=S | 19 | nt | i | -6 | -7 | 3 | -2 | -8
COc1ccccc1-c1cn(CC[C@@H]2CC[C@H](NC(=O)C3CCC3)[C@@H](CO)O2)nn1 | -15[16.7 µM] | -6 | nt | 3 | 7 | nt | nt | nt

Structures above that have an NH in an aromatic ring:
SMILES | Env fusion inh | UUG fidelity | Rce1 inhib | MT1-MMP act inh | MT1-MMP act inh RFP | PABP FP inh | eIF4H inh | CSC inhib | others
CCCc1c(O)nc(SCC(=O)O)[nH]c1=O | -6 | nt | i | -4 | -3 | 4 | -12 | 9
O=C(COC(=O)c1c[nH]c(=O)[nH]c1=O)NCc1ccccc1 | nt | -7 | i | 10 | 3 | 0 | -1 | -5
Cc1cc(C)c2[nH]c(=O)c(CN(Cc3cccs3)C(=S)NCC3CCCO3)cc2c1 (centres undefined) | 40 | -29 | i | -5 | -7 | -10 | -7 | 20
Cc1[nH]c2ccccc2c1C(=O)CSc1ccccn1 | -36 | -22 | i | 2 | -1 | 1 | -9 | -3
C=C(C)Cn1c(CCn2c3ccccc3c3ccccc32)n[nH]c1=S | 19 | nt | i | -6 | -7 | 3 | -2 | -8

Other entries follow.
SMILES | Env fusion inh | UUG fidelity | Rce1 inhib | MT1-MMP act inh | MT1-MMP act inh RFP | PABP FP inh | eIF4H inh | CSC inhib | others
Oc1c(C(Nc2ccccn2)c2ccccn2)ccc2cccnc12 (centres undefined) | -252 | -40 | i | -1 | -12 | 0 | 23 | -4
CCc1cccc2c(C(=O)CSc3nncn3C)c[nH]c12 | 1 | 2 | i | 3 | 3 | 12 | 6 | -5
Cc1cc2c(cc1S(=O)(=O)N1CCN(c3cccc(C)c3C)CC1)OCCN2C | 4 | -12 | i | 4 | 0 | -3 | -12 | 53
O=C(Nc1ccc(Cl)c(S(=O)(=O)N2CCCC2)c1)c1nn(CCO)c(=O)c2ccccc12 | 0 | -6 | nt | 5 | -12 | nt | nt | nt
CCN1C(=O)/C(=C\N2CCN(C(=O)c3ccco3)CC2)SC1=S | -20 | nt | i | -1 | 0 | 1 | -6 | -12
CSc1ccc(S(=O)(=O)NCC(=O)OCC(=O)NCC2CCCO2)cc1[N+](=O)[O-] (centres undefined) | nt | -15 | i | 1 | 4 | nt | nt | 1
Cc1cc(NC(=O)/C=C/c2ccc(Cl)cc2)no1 | -24 | nt | i | -4 | -1 | 1 | -11 | 78*
CC1(C(=O)NS(=O)(=O)c2ccc3c(c2)CCO3)CCN1C(=O)c1ccccc1CCc1ccccc1 (centres undefined) | -1 | -8 | nt | -1 | -1 | nt | nt | nt
CCCCNc1nc2cccnc2s1 | -9 | -14 | i | -1 | 0 | -8 | 0 | 8
Cc1ccc(S(=O)(=O)N(C)c2ccc(C(=O)Nc3ccccc3C(=O)N3CCOCC3)cc2)cc1 | 4 | 5 | i | 3 | -1 | 3 | 7 | -7

3 compounds picked at random from those above, as already listed:
SMILES | Env fusion inh | UUG fidelity | Rce1 inhib | MT1-MMP act inh | MT1-MMP act inh RFP | PABP FP inh | eIF4H inh | CSC inhib | others
CCN1C(=O)/C(=C\N2CCN(C(=O)c3ccco3)CC2)SC1=S | -20 | nt | i | -1 | 0 | 1 | -6 | -12
CCCCNc1nc2cccnc2s1 | -9 | -14 | i | -1 | 0 | -8 | 0 | 8
C=C1N(c2cccc(Cl)c2)C(=O)OC1(C)C | 0 | -22 | i | -1 | 4 | -10 | -1 | -3
